Source: PubChem
FPR ligand = human FPR ligand, with FPRL1 counter-screen; P21462; FPR-expressing cells, fluorescent ligand binding, flow cytometry; inhibition, %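 (tested at 6.7 µM)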; hit rate 0.74% among 24,000;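 further: 0% = buffer wells and 100% = receptor blocker peptide wells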
Target sequence (P21462 whole entry, looked up): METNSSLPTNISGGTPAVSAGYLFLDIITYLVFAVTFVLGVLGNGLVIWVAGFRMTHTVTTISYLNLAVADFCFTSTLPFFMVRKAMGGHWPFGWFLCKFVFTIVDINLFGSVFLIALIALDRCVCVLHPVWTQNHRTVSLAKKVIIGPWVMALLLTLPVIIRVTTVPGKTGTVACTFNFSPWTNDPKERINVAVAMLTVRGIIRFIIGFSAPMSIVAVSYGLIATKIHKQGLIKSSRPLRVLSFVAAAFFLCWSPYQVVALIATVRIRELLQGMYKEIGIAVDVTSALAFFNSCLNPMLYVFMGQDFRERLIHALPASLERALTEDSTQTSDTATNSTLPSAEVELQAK
FPRL1 binder = binds the human formylpeptide receptor-like-1 FPRL1; inhibition, %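 (tested at 6.7 µM)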; FPRL1-expressing cells, fluorescent ligand binding inhibition, flow cytometry; hit rate 0.3% among 24,000;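 further: 0% = buffer alone and 100% = receptor blocker peptide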
Target sequence (P25090 whole entry, looked up): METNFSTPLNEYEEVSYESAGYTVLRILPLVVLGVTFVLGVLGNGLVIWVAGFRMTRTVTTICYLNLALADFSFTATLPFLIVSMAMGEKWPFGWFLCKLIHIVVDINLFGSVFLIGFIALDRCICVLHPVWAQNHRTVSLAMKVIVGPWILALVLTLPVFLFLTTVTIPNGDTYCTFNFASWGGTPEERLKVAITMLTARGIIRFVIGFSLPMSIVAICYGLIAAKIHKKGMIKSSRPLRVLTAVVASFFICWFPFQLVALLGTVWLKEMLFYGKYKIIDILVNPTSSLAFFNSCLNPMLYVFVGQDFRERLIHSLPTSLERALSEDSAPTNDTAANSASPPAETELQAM
VCAM-1 inhibition = suppression of endothelial VCAM-1 upregulation – cell-based, plate reader, pooled HUVEC, TNFa stimulus (AID 454). inhibition, % at 5 µM. hit rate 0.2% among 10,000. HUVEC TNFa-induced VCAM-1 surface immunofluorescence, plate reader; numbers were filed only for top-ranked candidate wells;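 active means compound among top-ranked inhibitors of TNF-induced VCAM-1 adhesion protein staining, with the hit upheld by image or statistical review; inactive means the rest, including hits rejected on review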;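 further: 0% = TNFa with vehicle and 100% = cells without TNFa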
VCAM-1 imaging = inhibitors of TNFa-induced VCAM-1 surface display, imaging, high-content imaging, pooled HUVEC, TNFa stimulus (AID 456); hit rate 0.2% among 10,000; HUVEC TNFa-induced VCAM-1 surface expression, immunofluorescence imaging; numbers were filed only for top-ranked candidate wells; one-dose inhibition, % at 5 µM; IC50 in µM for titrated hits;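 active means top tenth filtered wells with inhibition above zero that passed visual or statistical confirmation; inactive means the rest, including hits rejected on review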;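 further: 0% = stimulated vehicle wells and 100% = unstimulated cells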
VCAM-1 up imaging = boosters of cytokine-driven VCAM-1 levels – imaging, high-content imaging, pooled HUVEC, TNFa stimulus (AID 457); Pooled HUVEC, TNFa-induced VCAM-1 immunofluorescence imaging; hits of this screen are not shown here; calls only; hit rate 0.2% among 10,000;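 active means a top-ranked rise in VCAM-1 staining upheld on image or statistical review; inactive means the rest, including candidates rejected on review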;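 further: compounds tested at 5 µM in the well; cells exposed to compound for 24 hours before fixing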
Starred values were filed as active, the others as inactive; i = inactive; . = no result given.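 How the source made its calls, unless noted: active means mean above 30%; inconclusive means self-fluorescent; inactive means the rest.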 Some of the compounds tested. The share of hits here may be higher or lower than overall.

Molecule | FPR ligand | FPRL1 binder | VCAM-1 inhibition | VCAM-1 imaging | VCAM-1 up imaging
Cc1cc(C)c(-c2cc(C(=O)Nc3c(C)n(C)n(-c4ccccc4)c3=O)[nH]n2)c(O)c1 | -3 | 4 | i | i | i
O=C(Cn1c(-c2cncs2)nc2ccccc21)NC1CCCC1 | -1 | -4 | i | i | i
CCn1cc(C2N3CC4(C)CN2CC(C)(C3)C4=O)c2ccccc21 (stereo unspecified) | -4 | 3 | . | . | .
CCC(C)NC(=O)C1CCC(=O)N(c2cc(OC)c(OC)c(OC)c2)C1c1ccc(OC)cc1 (stereo unspecified) | -3 | -5 | . | . | .
CCCn1cnc2cc(NCc3ccccn3)ccc21 | -5 | -6 | . | . | .
CC(=O)c1ccc(NC(=O)CSc2nnc(Cn3c(=O)sc4ccccc43)n2C)cc1 | 0 | 5 | . | . | .
O=C(O)C1C2CCC(O2)C1C(=O)NCc1ccncc1 (stereo unspecified) | -2 | 5 | . | . | .
Cc1cc(NC(=O)c2cc(C3CC3)on2)no1 | 4 | 3 | . | . | .
c1ccc2c(NC3CCCC3)nnc(NC3CCCC3)c2c1 | -6 | 4 | i | i | i
COc1ccc(Cl)cc1NC(=O)COc1cccc(-n2cnnn2)c1 | 17 | 8 | i | i | i
CCS(=O)(=O)N1CCC(C(=O)N2CCc3ccccc3C2)CC1 | -8 | -2 | . | . | .
CCN(c1cccc(C)c1)S(=O)(=O)c1cccc2nsnc12 | 2 | -2 | . | . | .
O=C(/C=C1\NC2(CCCC2)Cc2ccccc21)N1CCOCC1 | -6 | 1 | i | i | i
CCn1c(SCC(=O)Nc2nccs2)nnc1-c1ccncc1 | -1 | -1 | i | i | i
Cc1oc(-c2ccc(Cl)cc2)nc1CN1CCCC(C(=O)NCc2cccnc2)C1 (stereo unspecified) | 2 | -4 | . | . | .
CC1CCN(Cc2ccc(-c3nn[nH]n3)cc2)CC1 | 7 | 3 | i | i | i
COc1nc(NCCc2ccc(OC)c(OC)c2)nc(NC(C)(C)CO)n1 | 3 | 0 | i | i | i
CCCCOn1c(C)c(C(=O)OCC)c2c3nonc3ccc21 | 2 | -3 | i | i | i
CC(=O)Nc1ccc(S(=O)(=O)NCC2CCC(C(=O)NCCCN3CCCC3=O)CC2)cc1 (stereo unspecified) | -5 | 0 | i | i | i
O=C(O)c1ccc2c(c1)NC(=O)C(N1CCCC1)S2 (stereo unspecified) | -1 | 0 | . | . | .
CC(=O)Nc1ccc(NC(=O)C(C)Oc2ccccc2F)cc1 (stereo unspecified) | 2 | -6 | i | i | i
COc1ccc2c(c1)CCc1c(C(=O)Nc3ccc(OC)c(OC)c3)noc1-2 | 3 | -11 | . | . | .
CCCn1nnnc1SCC(=O)c1ccc2c(c1)OCCO2 | -6 | 5 | i | i | i
COC(=O)C(F)(Sc1c(C)n(C)n(-c2ccccc2)c1=O)C(F)(F)F (stereo unspecified) | -3 | 4 | . | . | .
CN(C)C(=O)C12CCC(C)(c3nc4ccccc4nc31)C2(C)C (stereo unspecified) | -1 | 4 | i | i | i
O=c1cc(-c2ccccc2)c2c([nH]1)CCCC2 | -3 | 9 | . | . | .
COc1ccc(CCNC(=O)COc2nsnc2N2CCOCC2)cc1OC | -5 | -4 | . | . | .
O=C(O)c1ccccc1S(=O)(=O)Cc1ccccc1 | 5 | 2 | . | . | .
COc1c2occc2c(OC)c2c(=O)cc(C)oc12 | -1 | 0 | i | i | i
CCCN1Cc2cccc(C(=O)NCc3ccccc3)c2C1=O | 12 | -4 | . | . | .
CCCCCc1nnc(NC(=O)Cc2cccs2)s1 | -1 | -4 | i | i | i
CCN(CC)S(=O)(=O)c1ccc(/C(O)=C2/C(=O)C(=O)N(CCOC)C2c2ccccc2)cc1 (stereo unspecified) | 0 | 2 | . | . | .
CCOC(=O)N1CCN(c2c(NCCCN(CC)Cc3ccccc3)c(=O)c2=O)CC1 | 5 | -4 | . | . | .
COc1ccc(-c2nc(N3CCCC3)nc3nn4c(C)cc(C)nc4c23)cc1 | 4 | -2 | . | . | .
COc1ccc2c(c1OC)C(=O)OC2Nn1cncn1 (stereo unspecified) | 4 | 4 | i | i | i
C=CCSc1nnc2n(CCc3ccccc3)c(=O)c3c4c(sc3n12)COC(C)(C)C4 | 10 | 2 | i | i | i
Cc1ccc(C2Nc3ccccc3-c3nc4ccccc4n32)o1 (stereo unspecified) | 14 | 1 | i | i | i
CN(C)S(=O)(=O)c1ccc(S(=O)(=O)Nc2ccc3c(c2)oc2ccccc23)cc1 | -10 | 3 | i | i | i
CC(=O)Nc1cccc(NC(=O)CCn2c(=O)sc3ccccc32)c1 | -2 | -2 | . | . | .
Cc1ccc(S(=O)(=O)N2CCC(C(=O)N3CCC(C(=O)NCC4CCCO4)CC3)CC2)cc1 (stereo unspecified) | -2 | -8 | . | . | .
O=C(NCCSc1c[nH]c2ccccc12)c1ccc(Br)o1 | 1 | -10 | i | i | i
COc1ccc(/C(O)=C(\C#N)c2nc3ccccc3n2C)cc1OC | -8 | 6 | . | . | .
Cc1cccc(-n2c(Cc3cc(=O)[nH]c(=O)[nH]3)nnc2SCC(=O)NCc2ccco2)c1 | -2 | -3 | i | i | i
NCc1ccc(S(N)(=O)=O)cc1 | -2 | 0 | i | i | i
CCc1cc2c(=O)c(-c3nc4ccccc4n3C)c(C)oc2c(CN2CCN(CCO)CC2)c1O | -7 | 0 | . | . | .
CN(Cc1ccccc1)C(=O)c1cc(-c2ccc(Br)cc2)on1 | -3 | 3 | i | i | i
O=C(CCS(=O)(=O)c1cccc2nonc12)N1CCN(c2ccc(F)cc2)CC1 | 5 | 0 | . | . | .
CCOC(=O)N1CCC(NC(=O)Cn2cccc2C(=O)c2ccccc2C)CC1 | -3 | -4 | . | . | .
C=CS(=O)(=O)c1ccc(Oc2ccc(S(=O)(=O)C=C)cc2)cc1 | -6 | 1 | 100* | 1.2µM* | i
Oc1cnc2ccccc2c1CN1CCOCC1 | 10 | 4 | i | i | i
CCOc1ccc(N(CC(=O)O)S(=O)(=O)c2cccnc2)cc1 | -2 | 1 | . | . | .
O=C(NC1CCCC1)c1ccc(CS(=O)(=O)c2ccc(Br)cc2)o1 | -9 | -10 | . | . | .
COc1ccc(OC)c(NS(=O)(=O)c2ccc(Cl)s2)c1 | -3 | 0 | . | . | .
CCOc1ccc(OCC)c(NC(=O)C2CCN(c3nn4c(=O)cc(C)nc4s3)CC2)c1 | 2 | -2 | . | . | .
c1ccc(CCn2nnnc2CN2CCN(C3CCCC3)CC2)cc1 | -5 | -2 | i | i | i
CCOC(=O)Cc1csc(/C(=N/O)C(N)=O)n1 | -11 | 0 | i | i | i
COc1ccc(NC(=O)C2CCCCN2S(=O)(=O)c2ccc(F)cc2)c(OC)c1 (stereo unspecified) | -1 | -2 | . | . | .
CC(=O)c1cccc(NC(=O)C2C3C=CC(C4CC34)C2C(=O)O)c1 (stereo unspecified) | -4 | 0 | . | . | .
CCOC(=O)C(CC)n1cnc2c(oc3ccccc32)c1=O (stereo unspecified) | 10 | 5 | . | . | .
COc1ccccc1NC(=O)N(Cc1ccccc1)C1=NCC(C)S1 (stereo unspecified) | 0 | -4 | . | . | .

Following part:
Molecule | FPR ligand | FPRL1 binder | VCAM-1 inhibition | VCAM-1 imaging | VCAM-1 up imaging
O=C(CN1CCCN(S(=O)(=O)c2ccc(Br)cc2)CC1)Nc1ccc2c(c1)OCO2 | 5 | -1 | i | i | i
Cc1ccc(C)c(NC(=O)c2nnn(Cc3ccccc3C)c2N)c1 | 2 | 1 | . | . | .
O=C(Nc1ccccc1C(F)(F)F)N1CCN(c2ccc3nncn3n2)CC1 | 0 | 9 | . | . | .
COc1ccc(NC(=O)Cn2nc3n(c2=S)CCC3)cc1 | -5 | 6 | . | . | .
O=C(NCCc1cccc(Cl)c1)c1cccnc1 | 1 | 2 | i | i | i
CCOC(=O)c1[nH]c(C)c(C(=O)NC2CCCCC2)c1C | -1 | -4 | . | . | .
O=C(CCNC(=O)Cn1ccc2ccccc2c1=O)NCCN1CCN(c2cccc(Cl)c2)CC1 | 3 | 4 | . | . | .
Cn1cnc2cc(NC(=O)c3ccc(Cl)cc3)ccc21 | 8 | 3 | i | i | i
CCc1ccccc1NC(=O)C(CC)Sc1nc2cc3c(cc2c(=O)n1Cc1ccco1)OCO3 (stereo unspecified) | -5 | 0 | i | i | i
CC(C)(C)NC(=O)c1ccc(COc2ccccc2Br)o1 | -3 | 0 | . | . | .
O=S(=O)(c1cccc2nsnc12)N1CCN(c2ncccn2)CC1 | 3 | -1 | i | i | i
O=C(NCCc1ccc(Cl)cc1)C1CCC(=O)N1C1CCCC1 (stereo unspecified) | 8 | 12 | . | . | .
NS(=O)(=O)c1ccc(CCNC(=O)C2CCCN(S(=O)(=O)c3cccnc3)C2)cc1 (stereo unspecified) | 0 | -1 | . | . | .
CCCNC(=O)c1cc(-c2ccc(OC)cc2)on1 | 6 | -10 | . | . | .
COc1cccc(Cn2nnc(C(=O)Nc3cc(Cl)ccc3OC)c2N)c1 | -12 | -10 | . | . | .
Cc1cc(=O)oc(C)c1C(=O)NCC1COc2ccccc2O1 (stereo unspecified) | 2 | -1 | . | . | .
CCOC(=O)c1[nH]c(C)c(C(=O)NCCN2CCOCC2)c1C | 5 | 1 | . | . | .
O=C(CCc1nc(-c2ccccc2F)no1)NCCN1CCN(Cc2ccccc2)CC1 | -3 | 1 | . | . | .
COC(=O)c1sc(=S)n(-c2cccc(Cl)c2)c1N | 2 | 0 | . | . | .
COC(=O)C(NC(C)=O)(Nc1ccccn1)C(F)(F)F (stereo unspecified) | -2 | -1 | i | i | i
CC(C)[C@H](NC(=O)OC(C)(C)C)c1nnc(S(=O)(=O)Cc2c(F)cccc2Cl)o1 | -4 | -9 | 80 | 72% | i
CC(=O)c1c[nH]c2ccc(C)cc2c1=O | -5 | -7 | . | . | .
CCOC(=O)C1=C(C)Nc2nc(C)nn2C1c1ccc(C)cc1 (stereo unspecified) | 17 | 2 | . | . | .
OC[C@H]1O[C@@H](n2cnc3c(Nc4ccccc4)ncnc32)[C@H](O)[C@@H]1O | -3 | 1 | i | i | i
O=C(C1CCCCC1)N1CC(=O)N2CCc3ccccc3C2C1 (stereo unspecified) | 2 | 2 | i | i | i
C=CCn1c(-c2cccs2)nc2nc3ccccc3nc21 | -3 | 1 | i | i | i
Cc1ccc(CS(=O)(=O)CCC(=O)NCCN2CCCCC2C)cc1 (stereo unspecified) | -1 | 3 | . | . | .
CCOC(=O)C1CCN(C(=O)Nc2ccc3nc(C)c(C)nc3c2)CC1 | -2 | -4 | i | i | i
CCOc1ccc(/C(O)=C2/C(=O)C(=O)N(CCOCCO)C2c2cccnc2)cc1 (stereo unspecified) | -14 | -1 | . | . | .
COc1ccc(-n2c(Cc3cccn3C)nnc2SCC(=O)Nc2ccc3c(c2)OCO3)cc1 | 6 | 2 | . | . | .
CC(OC(=O)c1ccco1)C(=O)NCc1cccs1 (stereo unspecified) | -4 | -5 | i | i | i
COCCn1c(SCC(=O)Nc2cccc(OC)c2)nnc1-c1ccccc1 | -7 | -9 | i | i | i
CCCOc1ccc2oc(=O)c3c(c2c1)CCCN3C(=O)CN1CCN(C(=O)c2ccco2)CC1 | 2 | -3 | . | . | .
CCOc1cc2[nH]c(=S)n(CCCN3CCN(C)CC3)c(=O)c2cc1OCC | 3 | 2 | . | . | .
COc1cccc(C(=O)Nc2ccc(NC(C)=O)cn2)c1 | -5 | -3 | i | i | i
O=C(NCc1ccco1)c1cccn2c(=O)c3sccc3nc12 | 7 | 2 | i | i | i
CCOC(=O)N1CCN(C(=O)CSCc2nc(-c3ccccc3F)oc2C)CC1 | -2 | 7 | . | . | .

Some entries already given, limited to FPR ligand and VCAM-1 inhibition.
Molecule | FPR ligand | VCAM-1 inhibition
CC(=O)Nc1cccc(NC(=O)CCn2c(=O)sc3ccccc32)c1 | -2 | .
Cc1cc(NC(=O)c2cc(C3CC3)on2)no1 | 4 | .
CC(C)[C@H](NC(=O)OC(C)(C)C)c1nnc(S(=O)(=O)Cc2c(F)cccc2Cl)o1 | -4 | 80
